# Bioassay records (PubChem)
# GIV-Gai inh = inhibitors of GIV GBA-motif binding to rat Galpha-i3. P08753. Galpha-i3/FITC-GIV peptide fluorescence polarization, 90 min; hits give low values; scaled: aluminum fluoride 0%, vehicle 100%. percent of control (FP), % (test concentration not listed). 0.42% of 210,000 active. AID 1224905;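 active = replicate mean at 85% of control or lower, very high polarization wells dropped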;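 note: wells of about 15 µL received 100 nL stock; the first replicate is given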
# Target sequence (P08753 whole entry, looked up): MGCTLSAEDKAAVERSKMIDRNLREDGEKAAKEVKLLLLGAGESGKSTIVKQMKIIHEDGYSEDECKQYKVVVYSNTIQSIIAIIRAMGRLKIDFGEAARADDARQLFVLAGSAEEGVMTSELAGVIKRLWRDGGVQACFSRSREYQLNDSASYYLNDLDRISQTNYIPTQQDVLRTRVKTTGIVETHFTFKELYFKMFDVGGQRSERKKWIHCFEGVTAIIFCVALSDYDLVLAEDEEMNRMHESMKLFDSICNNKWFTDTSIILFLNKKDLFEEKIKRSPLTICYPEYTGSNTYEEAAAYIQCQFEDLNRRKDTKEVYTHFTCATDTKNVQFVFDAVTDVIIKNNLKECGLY
# HCMV NEC inh = cytomegalovirus nuclear egress complex inhibition; inhibition, % (test concentration not listed); HTRF UL50-UL53 interaction, normalized percent inhibition; 0.15% of 190,000 active;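 active = both replicates at 50% or more, plus weaker picks with an unusually low signal ratio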;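 note: stock transfer was 100 nL into about 20 µL; 0% = negative control wells and 100% = wells with untagged competitor protein; inactives centre near -12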
# Sa growth 42C = S. aureus growth inhibition; S. aureus RN4220 growth, OD600, 20 h, 42 °C; hits give low values; relative growth, % (no concentration beside the values); 0.53% of 170,000 active;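 active = growth at 42 °C up to 50% and 20 or more points under that at 30 °C, or under 10% at both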;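 note: 300 nL library stock went into each well; scaled to the means of positive and negative controls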
# Sa growth 42C second temp = second read-out of Sa growth 42C, no call of its own (marks repeat the call); relative growth, %; measured here: growth at 30 °C;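 optical density after 20 h as mean of two plates; 100% = untreated growth and lower means inhibition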
# * marks the source's active call; other numbers are inactive results; x = not tested or not shown; & = joins results of further samples.
# Every second line gives: Sa growth 42C second temp	GIV-Gai inh	Sa growth 42C	HCMV NEC inh
- OC(CN1CCN(Cc2c(F)cccc2Cl)CC1)Cn1ccc2ccccc21 (stereo unspecified)
 : 91	103	103	x
- CCCOc1ccc(CNC(=O)Cn2c(=O)oc3ccccc32)cc1
 : 85	101	116	-33
- COc1ccc(-c2nc(CN3CCN(C(=O)c4ccc(OC)c(OC)c4)CC3)c(C)o2)cc1
 : x	105	x	-17
- O=C(NCC(c1ccco1)N1CCCC1)c1ccc(CSc2ncn[nH]2)cc1 (stereo unspecified)
 : 91	x	100	-13
- CCN1CCN(c2ccc(NS(=O)(=O)c3c(C)nc4sccn4c3=O)cc2Cl)CC1
 : 96	107&99	106	-12&-15
- O=S(=O)(NCCc1csc2nc(-c3ccc(Cl)cc3)nn12)c1cccs1
 : 81	98	102	x
- O=C(O)c1ccc(-c2ccc(C(=O)O)c(C(=O)O)c2)cc1C(=O)O
 : 97	104	94	-11
- CCN(c1ccccc1)S(=O)(=O)c1ccc2[nH]cc(C(=O)NCc3ccc(C)cc3)c(=O)c2c1
 : 101	104&103	107	x
- CCOc1ccc2nc(N3CCCC(C(=O)NCc4ccc(C)cc4)C3)sc2c1 (stereo unspecified)
 : 82	106	108	-14
- COCCCNc1nc2c(c(=O)[nH]c(=O)n2C)n1CC(O)COc1ccc(Cl)cc1 (stereo unspecified)
 : 91	98	98	-7
- COc1ccc(CNC(=O)CCC2N=C3c4ccccc4N=C(SCc4ccccc4F)N3C2=O)cc1 (stereo unspecified)
 : 95	98	94	x
- O=C1CC(c2ccccc2)=Nc2ncccc2N1
 : 86	102	100	x
- Cc1cc(Nc2ccccc2O)nc(C)n1
 : 83	115&146	98	-37&5
- O=S(=O)(c1ccc(Br)cc1)c1ccc(Br)cc1
 : 87	x	87	-34
- CCCCN(CC)S(=O)(=O)c1ccc2[nH]c(=O)cc(C(=O)NCCN3CCN(c4ccccc4F)CC3)c2c1
 : 86	98	100	-26
- O=C(CN(C(=O)C1CSC(=O)C1)c1ccccc1F)NC1CCCC1 (stereo unspecified)
 : 93	104	89	4
- Cc1ccc(C(=O)NC2CCCCCC2)cc1N1CCCC1=O
 : 89	110	104	2
- CCn1c(=O)c2cc(C(=O)N3CCN(c4cccc(OC)c4)CC3)sc2c2ccccc21
 : 71	104	99	-10
- Cc1ccc(C(=O)c2cncc(Br)c2)cc1
 : 78	104	89	-16
- CCOC(=O)C1=C(CNCc2ccccc2Cl)NC(=O)NC1c1ccc2c(c1)OCO2 (stereo unspecified)
 : 104	99	102	11
- O=C(Nc1ccc(Cl)c(Cl)c1)n1ccc(C(F)(F)F)n1
 : 48	103	54	4
- Cc1cc(C(=O)NCc2ccc(Cl)cc2)c2c(C)nn(-c3ccccc3)c2n1
 : 85	97	97	x
- COc1ccccc1/C=C/C(=O)Nc1nc2ccccc2s1
 : 90	x	127	6
- CCOc1ccc(-c2ccc(NS(=O)(=O)c3cc(C)c(C)cc3C)cc2)nn1
 : 96	106	109	x
- CCOc1ccc(NC(=O)C(CC(C)C)N2Cc3ccccc3C2=O)cc1 (stereo unspecified)
 : 115	107	105	x
- O=C(NCc1ccc2c(c1)OCO2)c1cc2c(=O)[nH]c3ccccc3c2s1
 : x	99	x	3
- CCOC(=O)c1cccc(NS(=O)(=O)c2cc(C(=O)N3CCCC3)n(C)c2C)c1
 : x	103	x	-23
- Cc1oc(-n2c(C)cc(/C=C(\C#N)c3ccc4c(c3)OCO4)c2C)c(C#N)c1C
 : 95	x	86	-33
- CSc1ccc(Cl)c(C(=O)OCC(=O)c2ccccc2)c1
 : 92	x	114	-29
- CCN(CC)c1ccc(-c2n[nH]c(=S)n2-c2ccccc2)cc1
 : 94	x	93	12
- O=C(O)c1ccc(O)c(SCN2CCCCC2)c1
 : 1.0*	x	4.1*	-6
- CCn1nc(C)c2c1c(=O)n(CCc1ccccc1)c(=O)n2Cc1cc(C)ccc1C
 : x	101	x	-6
- CN1C(=O)/C(=C\c2ccc(-c3ccccc3C(=O)O)o2)C(=O)N(c2ccccc2)C1=S
 : 69	112	113	-22
- CN(C1CCCC1)C1CCN(C(=O)Nc2ccc(Cl)cc2)CC1
 : 97	103	100	5
- COc1ccc(-n2nc3c(N4CCC(C(=O)NCC5CCCO5)CC4)nnc(C)c3c2C)cc1 (stereo unspecified)
 : x	105	x	6
- O=C(c1ccc(F)cc1)N1c2nc(-c3ccco3)nn2C2(CCCCC2)[C@@H]2CCCC[C@@H]21
 : 85	97	91	-9
- COC(=O)C1=C(C)Oc2oc(C)cc(=O)c2C1c1cccnc1 (stereo unspecified)
 : 86	x	116	-15
- NC(=O)CSc1nc(N)cc(N)n1
 : 96	x	90	13
- Cc1ccc(-n2ccnc2SCC(=O)c2ccc[nH]2)c(C)c1
 : 95	x	115	-24
- CC1=C(C(=O)Nc2ccc(C)cc2C)C(c2ccc([N+](=O)[O-])cc2)n2ncc(C(=O)Nc3ccc(F)cc3)c2N1 (stereo unspecified)
 : 86	97	80	x
- CCOc1ccccc1C(=O)N(Cc1ccc(N(C)C)cc1)Cc1ccco1
 : 89	103	109	0
- CCCNC(C)C(=O)Nc1ccccc1C (stereo unspecified)
 : 88	105	96	-36&-15&-31&-8&-53&-15
- O=C(c1cccc(F)c1)N1CCN(c2ccc3nncn3n2)CC1
 : 87	98	94	x
- CC(C)(C)C(=O)N1CCN(C(c2ccccc2)c2ccccc2)CC1
 : 100	101	125	4
- O=C1CCCC2/C(=N/O)CCCC12 (stereo unspecified)
 : 88	101	88	-34
- O=C(CSc1ncnc2sccc12)c1ccc(S(=O)(=O)N2CCCC2)cc1
 : 98	x	80	10
- CN(C)c1ccc(CNC(=O)C(Cc2ccccc2)n2cccc2)cc1 (stereo unspecified)
 : 86	114	90	x
- CCN(CC)CCNC(=O)C1=C(C)C(=O)OC12CCN(S(=O)(=O)CC)CC2
 : x	111	x	-25
- Cc1cc(C(=O)N2CCN(c3ccccc3)CC2)c(C)o1
 : 91	x	74	-19
- COc1ccc2c(CNCCc3ccccc3Cl)c(C(=O)O)[nH]c2c1
 : 90	100	92	x
- CC1CCc2nc(SC3CC(=O)N(c4ccccc4)C3=O)c(C#N)cc2C1 (stereo unspecified)
 : x	108	x	-41
- COc1ccc(P(=O)(CO)c2ccc(OC)cc2)cc1
 : 95	104	104	-5
- O=c1cc(CSc2nnc(-c3ccc4c(c3)OCO4)o2)nc2scc(-c3ccccc3)n12
 : 90	x	93	-14
- Cc1ccc(C)c(Cn2c3ccccc3c3cnn(CC(=O)NCCCc4ccccc4)c(=O)c32)c1
 : 98	106	96	19
- COc1cccc(C(=O)c2cn(CC(=O)NCc3ccccc3)c3nc(C)ccc3c2=O)c1
 : 92	112	85	x
- CC1C(C#N)=C(SCC(=O)c2ccc(Cl)cc2)NC2=C1C(=O)CC(C)(C)C2 (stereo unspecified)
 : 53	96	67	-16
- CN(C)CCSc1nc2ccccc2s1
 : 71	x	115	-26
- O=C(Nc1ccc(F)c(Cl)c1)N1CCN(c2ccc(-c3noc(C4CCC4)n3)cc2)CC1
 : x	106	x	-30
- COc1cc(OC)cc(-c2nnc(SCC(=O)c3ccc([N+](=O)[O-])cc3)o2)c1
 : 84	103	106	-11
- CCC(C)n1c(=O)c2sccc2n2c(CCCC(=O)N3CCN(c4ccccc4)CC3)nnc12 (stereo unspecified)
 : 93	102	138	x

# New compounds follow.
# Every second line gives: Sa growth 42C second temp	GIV-Gai inh	Sa growth 42C	HCMV NEC inh
- CCCC1CCc2c(sc(NC(=O)OC)c2C#N)C1 (stereo unspecified)
 : 106	102	121	4
- O=c1oc(=O)c2nc3c(=O)oc(=O)c3cc12
 : 97	x	87	-22
- Cn1c(-[n+]2ccccc2)c(/C=N/NC(N)=S)sc1=O
 : 96	106	97	-22
- CS(=O)(=O)Cc1cccc(C(=O)Nc2sccc2C#N)c1
 : 90	x	80	-5
- COC(=O)C(=C/C=C/c1cccs1)C(=O)OC
 : 111	107	110	-42
- Cc1cc(S(=O)(=O)NC2CCCCC2)ccc1OCC(=O)Nc1ccc2c(c1)OCO2
 : 96	108	123	-5
- COc1ccccc1N1CCN(C(=O)C(CC(C)C)NC(=O)C2CCC(C)CC2)CC1 (stereo unspecified)
 : 92	97	100	-6
- Clc1ccccc1CSc1nnc(-c2cccs2)o1
 : 91	104	114	43
- CCCNC(=O)C1CCN(c2cc(-c3ccc(F)cc3)ncn2)CC1
 : x	105	x	-23
- O=S(=O)(Nc1ccc(I)cc1)N1CCCCC1
 : 80	100	81	-26
- O=C(c1cccs1)c1cn(CCOc2ccc(F)cc2)c2ccccc12
 : 89	101	90	12
- Cc1ccc(OCC(=O)Nc2ccc3c(c2)nc(CCNC(=O)c2ccco2)n3C)cc1
 : 93	112	103	15
- Clc1ccc(N2CCN(C3=Cc4ccccc4C3)CC2)cc1
 : 95	106	111	10
- O=C(Cn1nc(-c2ccccc2)ccc1=O)NCc1ccc2c(c1)OCO2
 : 88	100	86	4
- O=C(Nc1ccc(C(F)(F)F)cc1)C1CCCN(c2cnccn2)C1 (stereo unspecified)
 : 85	99	88	-35
- CCOc1ccc(N2C(=O)/C(=C/c3ccccc3)N(C)C2=S)cc1
 : 87	100	123	x
- O=C1CCC(C(=O)Nc2cc(F)cc(F)c2)=NN1
 : 92	104	108	-7
- O=C(NCc1cccnc1)c1cccc2c1C(=O)N(Cc1cccnc1)C2
 : 97	101	124	2
- COc1ccc(CN(C)C(=O)[C@H](Cc2ccccc2)NC(=O)c2ccco2)c(OC)c1
 : 94	x	96	-10
- COc1cccc(-c2nc(Cn3c(=O)cc(C)c4c(C)nn(-c5ccccc5)c43)c(C)o2)c1OC
 : 83	99	81	x
- CCN1CCN(C(=O)C(C)NS(=O)(=O)c2ccc(OC)c(C)c2)CC1 (stereo unspecified)
 : 101	103	90	-30
- Nc1ccc(S(=O)(=O)NCC(F)(F)F)cc1
 : 96	x	98	10
- COC(=O)c1cc2c(s1)CN(C1CCCc3ccccc31)C2 (stereo unspecified)
 : 68	110	77	x
- CC(=O)Nc1c(C)cc(C)cc1-c1nnc(SCC(=O)Nc2cccc(Cl)c2)[nH]c1=O
 : x	116	x	-8
- N#Cc1cnc(Sc2nnc(-c3ccncc3)n2-c2ccccc2)nc1N
 : 92	109	101	-14
- Cc1nc2ccc(Nc3nc4cc(Cl)ccc4o3)cc2s1
 : 94	x	109	6
- C=C(C)C1CC=C(C)/C(=N/NC(=O)c2ccncc2)C1 (stereo unspecified)
 : 106	101	95	1
- CC(=O)Nc1ncc(Cc2ccccc2F)s1
 : 97	102	122	4
- Cc1c(C#N)sc(C#N)c1C
 : 80	105	88	-33
- NC(=O)COC(=O)CCc1nc2ccccc2c(=O)[nH]1
 : 97	x	116	8

# Another view of part of the listing above.
compound | Sa growth 42C second temp | GIV-Gai inh | Sa growth 42C | HCMV NEC inh
CS(=O)(=O)Cc1cccc(C(=O)Nc2sccc2C#N)c1 | 90 | x | 80 | -5
CCCC1CCc2c(sc(NC(=O)OC)c2C#N)C1 (stereo unspecified) | 106 | 102 | 121 | 4
CCOc1ccc2nc(N3CCCC(C(=O)NCc4ccc(C)cc4)C3)sc2c1 (stereo unspecified) | 82 | 106 | 108 | -14
C=C(C)C1CC=C(C)/C(=N/NC(=O)c2ccncc2)C1 (stereo unspecified) | 106 | 101 | 95 | 1

# (next part)
# Every second line gives: Sa growth 42C second temp	GIV-Gai inh	Sa growth 42C	HCMV NEC inh
- CCCC(=O)Nn1c(=O)[nH]c2ccccc2c1=O
 : 95	109	122	-14
- CN=C(Nc1ccc(C(=O)NC)cc1)c1ccccc1
 : 89	x	92	-2
- Cc1nc2cc(-c3noc(C4CC4)n3)ccc2n(C)c1=O
 : x	147	x	-12
- O=C(Cc1cccc2ccccc12)NCc1csc(-c2cccs2)n1
 : 77	102	111	-6
- CC(C)(C)c1cc(C(=O)Oc2cccc(C(F)(F)F)c2)n(Cc2ccccc2)n1
 : 102	104	94	-2
- COc1ccc(C2c3cccn3-c3c(c(C)nn3-c3ccccc3)CN2C(=O)Nc2cc(OC)ccc2OC)cc1 (stereo unspecified)
 : x	101	x	11
- CCCCn1c(N)c(N(CCOC)C(=O)CN2CCCc3cc(C)ccc32)c(=O)[nH]c1=O
 : 96	x	106	-5
- COc1cccc2c1c(NC(=O)CCC(=O)O)nn2C
 : 92	97	90	-12
- NC(=O)C1CCN(c2csc3ccccc3c2=O)CC1
 : 85	103	96	-61
- Cc1cc(C(=O)OC(C)C(=O)Nc2ccc(Cl)cc2Cl)c(C)o1 (stereo unspecified)
 : 100	x	90	2
- CC1(C)CC(=O)c2sc(Nc3nc4c(F)cccc4s3)nc2C1
 : 97	104	139	x
- CC(=O)N1N=C(C)CC1C1C(C)C=C(C)CC1C (stereo unspecified)
 : 78	105	96	13
- O=C(O)CCc1ccc(-c2cccs2)n1Cc1ccco1
 : 96	109	101	-9
- O=C(c1ccco1)N(Cc1cccnc1)c1nc2c(F)cccc2s1
 : 89	109	94	x
- Cc1noc(C)c1COC(=O)[C@@H](NC(=O)c1ccccc1)C(C)C
 : 91	x	83	-32
- O=C1CN(C(=O)c2cccs2)c2ccccc2N1
 : 77	101	105	-16
- CC1=C(C(=O)Nc2ccccc2C)C(c2sccc2C)n2ncnc2N1 (stereo unspecified)
 : 86	100	100	x
- O=S(=O)(NCCc1csc2nc(-c3cccc(F)c3)nn12)c1ccccc1
 : x	106	x	-9

# Two successive records from above, quoted:
# Every second line gives: Sa growth 42C second temp	GIV-Gai inh	Sa growth 42C	HCMV NEC inh
- CC1=C(C(=O)Nc2ccccc2C)C(c2sccc2C)n2ncnc2N1 (stereo unspecified)
 : 86	100	100	x
- O=S(=O)(NCCc1csc2nc(-c3cccc(F)c3)nn12)c1ccccc1
 : x	106	x	-9
